Source: PubChem (several laboratories)
Mtb hypoxia rep: Mtb hypoxia fluorescent reporter inhibition; M. tuberculosis hypoxia-regulated fluorescent reporter, fluorescence; fluorescence inhibition, % (test concentration not listed); 300,000 compounds, 0.1% hits; AID 1159583;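 active = 35 to 45% if threefold the growth effect, above 45% if 1.5-fold the growth effect; inactive = the rest, general growth blockers included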;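 note: wells of about 50 µL received 100 nL stock; 0% = vehicle wells and 100% = reference inhibitor wells; whole bacteria with a GFP reporter of the hypoxia response; strong numbers were not always called active; many hits fall short of the cut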
PrP 5UTR inh: inhibition of PrP 5' UTR reporter expression; cell-based PrP 5' UTR mRNA reporter, plate reader; inhibition, % (no concentration beside the values); 340,000 compounds, 0.35% hits; AID 488862;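 active = every replicate at 50% or more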;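 note: 0 = median of the neutral control wells; tested in H4 reporter cells; numbers are from one replicate; inactives centre near -14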
Autofluor counter: flagged as autofluorescent in microsphere protease counterscreen. fluorescence intensity (no concentration beside the values). 360,000 compounds, 3.1% hits. compound autofluorescence counterscreen, microsphere flow cytometry; active compounds read high;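 active = at least 3 SD above the mean of all compounds, about 16000 in these data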;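 note: 100 nL of 1 mM stock went into each well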
ugtP null kill: growth inhibition of S. aureus ugtP deletion strain; S. aureus RN4220 ugtP deletion, OD600 growth, 16 h; some inactives read as strong as hits; growth inhibition, % (no concentration beside the values); 330,000 compounds, 0.54% hits; AID 1259309;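 active = z-score under -3 and OD600 up to 0.15 on both plates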;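 note: plate controls were untreated wells for no effect and antibiotic for full effect; wells of about 80 µL received 100 nL stock; the first replicate is given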
RN4220 kill: kills Staphylococcus aureus RN4220; S. aureus RN4220 growth, OD600, 16 h; 330,000 compounds, 0.33% hits; AID 1259311; inhibition, % (no concentration beside the values);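 active = z-score of -3 or lower and OD600 up to 0.18 on both plates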;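 note: plate controls were untreated cells for no effect and reference antibiotic for full effect; stock transfer was 100 nL into about 80 µL; one replicate is shown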
BJeLR lethal: BJeLR cell viability loss | BJeLR (HRASV12) viability, CellTiter-Glo ATP luminescence, 48 h; reference of the scale not given here | inhibition, % (no concentration beside the values) | 300,000 compounds, 0.17% hits | AID 1554;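 active = replicate mean above 50%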;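 note: 50 nL library stock added to about 25 µL; numbers are from one replicate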
Mtb hypoxia rep growth: further read-out of Mtb hypoxia rep, marked with its call; growth inhibition, %; measured here: M. tuberculosis growth (absorbance);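 0% = vehicle and 100% = reference antibiotic; read after six days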
* = called active by the depositor; · = no result given; & = joins results of further samples.

SMILES | Mtb hypoxia rep | Mtb hypoxia rep growth | PrP 5UTR inh | Autofluor counter | ugtP null kill | RN4220 kill | BJeLR lethal
CCCC(=O)C1C(=O)CC(C)(C)C(c2cc(C)no2)C1=O (stereo not drawn) | · | · | -17 | 3564 | -9 | 2.9 | 2
N#CCc1ccc(NC(=O)c2cc(S(=O)(=O)N3CCOCC3)ccc2Cl)cc1 | 2 | 2 | -5 | 4675 | 6 | 0.3 | 2
CCOC(=O)C1(CC)Oc2ccccc2C(c2ccc(OC)cc2)=C1C(=O)OC (stereo not drawn) | -4 | 1 | 71* | 3732 | 7 | 3.6 | ·
Cc1cccc(NC(=O)C(C)N2C(=O)c3ccccc3S2(=O)=O)n1 (stereo not drawn) | · | · | -12 | 5932 | · | · | 19
O=C(N/N=C1\CCc2ccccc21)c1ccccc1O | · | · | -70 | 2104 | · | · | 27
O=C(COC(=O)Cn1cnc2ccccc2c1=O)Nc1cc(Cl)ccc1[N+](=O)[O-] | -11 | 15 | -17 | 2154 | -4 | -0.7 | -1
CC(C)c1ccc(/C=C/C(=O)NCCC2=CCCCC2)cc1 | 6 | 1 | -41 | 2568 | -1 | -4.8 | -7
Cn1c(=O)c2[nH]c(SCCN3CCCCC3)nc2n(C)c1=S | 8 | 5 | 0 | 4408 | 5 | 3.5 | ·
COc1ccc(CN2CCNC(=O)C2CC(=O)N(C)Cc2nc(C)cs2)c(OC)c1 (stereo not drawn) | -9 | 1 | -9 | 4145 | -4 | -0.5 | 0
Oc1ccc(CC2CNCCN2CC2(c3ccccc3)CC2)cc1 (stereo not drawn) | 10&-2 | 9&6 | · | · | 0&-10 | 4.4&0.8 | ·
CCOc1ccc(N(C(C)C(=O)N2CCOCC2)S(C)(=O)=O)cc1 (stereo not drawn) | 12 | -2 | -22 | 2980 | 5 | -0.2 | 4
COc1ccc(S(=O)(=O)N2CCCCCC2)cc1NC(=O)Cc1ccc(OC)c(OC)c1 | 7 | 6 | -20 | 3922 | 2 | 5.4 | ·
O=C(O)c1csc(-n2nc(-c3ccccc3)cc2C(F)(F)F)n1 | 1 | 1 | -28 | 3380 | -14 | 9.2 | 2
Cc1ccc(-c2nc3ncccc3o2)cc1NC(=O)CC(C)C | -4 | 0 | 0 | 2155 | -2 | 1.7 | -2
CCCCN(CC)Cc1ccc(CNC(=O)Nc2ccc(OC)cc2OC)o1 | -5 | -8 | -22 | 3090 | 5 | 11 | 8
CCCCCOC(=O)c1ccccc1C(=O)O | -1 | 0 | -10 | 4752 | -3 | 1.7 | 6
COc1ccc(C)cc1NC(=O)C(OC(=O)CNC(=O)c1cc(C)cc(C)c1)c1ccccc1 (stereo not drawn) | -1 | 1 | -6 | 1954 | 12 | 20 | -10
CSc1ccc(C(=O)N2CCC(CCC(=O)NC3CC3)CC2)cc1 | 4 | 1 | -9 | 5125 | 2 | 2.3 | 6
CC12CCC(C(N)=O)(C1Br)C2(C)C (stereo not drawn) | -2 | 3 | -2 | 2139 | 2 | -0.2 | -2
O=C(Nc1ccc(-n2cc(Br)cn2)cc1)c1ccncc1 | 7 | -4 | -27 | · | 12 | 4.1 | 1
CCC(=O)Nc1ccc(N2CCN(C(=O)c3cccs3)CC2)cc1 | 14 | 7 | -15 | 1796 | 7 | 2.7 | 0
Cc1ccc(N2CC(C(=O)N3CCC(C(=O)NCCCOC(C)C)CC3)CC2=O)cc1 (stereo not drawn) | 9 | 14 | -27 | 5840 | 3 | -2.4 | -6
Cc1cccc(OCC(=O)N2CCN(Cc3cccnc3)CC2)c1 | 9 | 5 | -10 | 3739 | 2 | -0.1 | 5
COc1ccc(CC(=O)N2CCN(c3ccccn3)CC2)cc1 | · | · | -5 | 4735 | 8 | 1.0 | -3
COc1ccc(-c2nc(CNS(=O)(=O)c3ccc(OC)c(OC)c3)cs2)cc1 | 14 | 8 | -18 | 5135 | -2 | -4.7 | -3
O=C(NC1CCCCC1)c1cccs1 | · | · | 2 | 3402 | 9 | 2.9 | -2
CC1CN(S(=O)(=O)c2cccc(C(=O)Nc3ccc4c(c3)CCC4)c2)CC(C)O1 (stereo not drawn) | 11 | 7 | -13 | 2991 | -7 | -6.9 | -5
COc1ccc(/C=C/C(=O)Nc2ccccc2C)cc1S(=O)(=O)N1CCOCC1 | 6 | 4 | -30 | 4005 | 5 | 2.0 | 10
O=C(NCCc1ccc(F)cc1)C1CCCCC1 | 20 | 16 | -18 | 2079 | 3 | 1.9 | 1
COC(=O)c1ccccc1NC(=O)COc1ccccc1 | 6 | 7 | -6 | 10312 | 0 | 5.1 | 8
O=C(NCC(c1cccnc1)N1CCOCC1)NC1CCCCC1 (stereo not drawn) | -2 | 7 | -11 | 2553 | 8 | 3.9 | 9
CCn1c(SCc2nc3ccccc3[nH]2)nnc1-c1ccc(OC)cc1 | -2 | 3 | 3 | 23993* | -2 | 2.4 | -6
CC(=O)/C=C(\C)NCCNc1c(F)c(F)c(CO)c(F)c1F | · | · | -19 | 4586 | 6 | -1.4 | 1
CCC/C(=N\NC(=O)Cc1csc(N2CCOCC2)n1)c1ccccc1 | · | · | -12 | 2526 | · | · | -5
COc1ccc(NC(=O)CCCn2nc(C)c3c(C)n(-c4ccccc4)nc3c2=O)cc1OC | 15 | 2 | -2 | 5866 | 7 | 1.6 | -3
COc1ccc(NC(=O)C(=O)N/N=C/c2cccnc2)c(OC)c1 | · | · | -14 | 9179 | · | · | -13
O=S(=O)(NC1CCN(Cc2ccccc2)CC1)c1ccc2ccccc2c1 | 6 | 2 | -15 | 5253 | 2 | 4.2 | 1
Cc1ccc(S(=O)(=O)/N=C2\C=C(Nc3cccc(C(=O)O)c3)C(=O)c3ccccc32)cc1 | · | · | -24 | 5674 | · | · | 20
O=C(Nc1nncs1)c1ccc(F)c(S(=O)(=O)N2CCCCC2)c1 | 1 | 8 | -17 | 6204 | 11 | 6.6 | 8
C=C1CCC2[C@](C)(CO[C@@H]3O[C@H](CO)[C@@H](O)[C@H](O)[C@H]3O)CCC[C@@]2(C)[C@@H]1CCC1=CCOC1=O (stereo partly drawn) | · | · | -29 | 5446 | 5 | 3.7 | ·
COCCn1nnnc1C(c1cccs1)N1CCCC(C)C1 (stereo not drawn) | 7 | 5 | -32 | 4772 | -3 | 7.5 | 2
O=c1c(Cl)c(NCc2ccccc2Cl)cnn1C12CC3CC(CC(C3)C1)C2 | 16 | 2 | -7 | 2571 | -17 | 1.2 | 6
COc1ccccc1C(=O)NN=C(C)c1cccnc1 | 3 | 4 | · | · | 4 | 3.0 | ·
CCN(CC(=O)NCc1ccc(Cl)cc1)C(=O)c1ccc2cc(OC)ccc2c1 | 7 | 8 | -13 | 5903 | 11 | 4.8 | -5
CCN(CC)S(=O)(=O)c1cccc(NC(=O)COC(=O)CCC(=O)c2ccc(F)cc2)c1 | 8 | 6 | -27 | 2582 | 2 | 4.7 | 3
Fc1ccc(NC(=S)NC2CCCCC2)c(F)c1F | 4 | 11 | -11 | 8005 | 8 | -3.5 | 12
CSc1ccc(C(=O)C2CCCN(Cc3cccc4nccnc34)C2)cc1 (stereo not drawn) | -14 | -12 | -12 | 6027 | -7 | -2.2 | 0
C=CCn1c(SCC(=O)NC2CC2)nc2ccccc2c1=O | 7 | 13 | -4 | 5857 | 4 | 3.8 | ·
CC(C)CN(CC(C)C)C(=O)CCCC(=O)N(CC(C)C)CC(C)C | 6 | 8 | -95 | 2432 | -7 | 0.9 | -19
COc1ccc2ccn(C)c2c1 | 1 | -9 | -7 | 3527 | 1 | 0.6 | ·
COc1cccc(-c2sc3cc(OC)c(OC)cc3c2-c2ccc(OCCN3CCCCC3)cc2)c1 | · | · | -13 | 4007 | 13 | 30 | ·
N#CCC(=O)NNc1c([N+](=O)[O-])cc(C(F)(F)F)cc1[N+](=O)[O-] | 24 | -6 | -19 | 4343 | 0 | 6.3 | 5
CN(CC(=O)Nc1cccc(F)c1)C(=O)CC1CC2CCC1C2 (stereo not drawn) | 3 | 2 | -12 | 5247 | -1 | 1.3 | 8
NC(=O)c1cc(S(=O)(=O)N2CCN(c3ccc([N+](=O)[O-])cc3)CC2)cs1 | 11 | 2 | -1 | 5718 | 11 | -1.3 | 7
CSC(=NC1CCCCC1)NS(=O)(=O)c1ccccc1 | 2 | 6 | 0&-11 | 3703&2450 | 5&1 | 8.0&4.6 | -4
O=C(CN(Cc1ccco1)C(=O)c1ccc(N2CCCC2=O)cc1)Nc1ccccc1C(F)(F)F | 4 | -2 | -22 | · | -2 | 4.2 | 9
COc1ccc(OC)c(NC(=O)c2cc3c(Cl)nc4ccccc4c3s2)c1 | 9 | -5 | -10 | 2104 | -6 | 0.3 | 6
CSc1nc(N)nc(SCC(=O)CC(=O)OC(C)C)c1C#N | -1 | 5 | -19 | 20850* | 16 | 1.1 | -3
CCN1CN(CCc2ccccc2)CNC1=S | 2 | 2 | -9 | 2651 | 1 | -0.8 | -5
CC(C)N(C(=O)CN1C(=O)NC2(CCCCCC2)C1=O)C(C)C | 9 | 2 | -24 | 3586 | 0 | -7.4 | -5

Full records, looked up by structure.
CC(C)N(C(=O)CN1C(=O)NC2(CCCCCC2)C1=O)C(C)C is listed as Mtb hypoxia rep: 9; Mtb hypoxia rep growth: 2; PrP 5UTR inh: -24; Autofluor counter: 3586; ugtP null kill: 0; RN4220 kill: -7.4; BJeLR lethal: -5
CSc1ccc(C(=O)C2CCCN(Cc3cccc4nccnc34)C2)cc1 (stereo not drawn) is listed as Mtb hypoxia rep: -14; Mtb hypoxia rep growth: -12; PrP 5UTR inh: -12; Autofluor counter: 6027; ugtP null kill: -7; RN4220 kill: -2.2; BJeLR lethal: 0

Arranged by count of non-hydrogen atoms (falling): some entries from above.
SMILES | Mtb hypoxia rep | Mtb hypoxia rep growth | PrP 5UTR inh | Autofluor counter | ugtP null kill | RN4220 kill | BJeLR lethal
COc1ccc(NC(=O)CCCn2nc(C)c3c(C)n(-c4ccccc4)nc3c2=O)cc1OC | 15 | 2 | -2 | 5866 | 7 | 1.6 | -3
Cc1cccc(OCC(=O)N2CCN(Cc3cccnc3)CC2)c1 | 9 | 5 | -10 | 3739 | 2 | -0.1 | 5
Cc1ccc(-c2nc3ncccc3o2)cc1NC(=O)CC(C)C | -4 | 0 | 0 | 2155 | -2 | 1.7 | -2
CC(=O)/C=C(\C)NCCNc1c(F)c(F)c(CO)c(F)c1F | · | · | -19 | 4586 | 6 | -1.4 | 1
COc1ccccc1C(=O)NN=C(C)c1cccnc1 | 3 | 4 | · | · | 4 | 3.0 | ·

New compounds follow
SMILES | Mtb hypoxia rep | Mtb hypoxia rep growth | PrP 5UTR inh | Autofluor counter | ugtP null kill | RN4220 kill | BJeLR lethal
Cc1noc(C)c1S(=O)(=O)N(C)C[C@H]1Oc2c(NC(=O)C3CCCCC3)cccc2C(=O)N([C@H](C)CO)C[C@@H]1C | -7 | 2 | -11 | 3626 | 7 | 3.6 | ·
CC(=O)Nc1ccc(NC(=O)c2cc(S(=O)(=O)N3CCCCC3)ccc2C)cc1 | 1 | -6 | -43 | 3479 | 3 | -0.2 | ·
CCc1cc2c(=O)c(-c3nc4ccccc4n3C)c(C)oc2c(CN2CCN(C)CC2)c1O | 6 | -4 | · | · | 17 | 2.5 | 1
CC(=O)c1cccc(OCC(O)CNCCc2ccc(Cl)cc2)c1 (stereo not drawn) | 4 | 7 | -15 | 3892 | 13 | -2.8 | 2
CC(=O)N1c2ccccc2C2(O)N=C(C)SC12 (stereo not drawn) | -3 | 7 | -16 | 2562 | 9 | 2.4 | ·
NC(=O)C1CCN(C2=C(NS(=O)(=O)c3ccc(Cl)cc3)C(=O)c3ccccc3C2=O)CC1 | 4 | 3 | -32 | 4327 | 9 | 15 | 7
COc1ccc(CNC(=O)CSc2nnc(-c3cccnc3)n2N)cc1 | -5 | 6 | -18 | 5420 | 5 | 0.7 | 4

Compounds were not picked by outcome; any-hit rate near 4%.
